Mtb bLac sens: beta-lactam sensitization of Mtb H37Rv | AID 434955 | inhibition, % at 25 µM | M. tuberculosis H37Rv growth with meropenem, percent inhibition; hits of this screen are not shown here | actives 0.27% (n = 330,000);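 active = about 74% or more and at least 40 points above the plate without the antibiotic, then above 30% in a dose series; inconclusive = first-round hits that could not be retested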;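 also: growth measured after seven days incubation then overnight dye step; 0% = bacteria only wells and 100% = bacteria with antibiotic; twin plates without the antibiotic show which effects depend on it; some results filed as inactive read as strong as hits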
YopH inh: inhibitors of Yersinia enterocolitica YopH tyrosine phosphatase | inhibition, %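 (about 10 µM by stock and volumes)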 | fluorescence Ex485/Em525 | actives 0.16% (n = 140,000);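 active = inhibition of 50% or more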;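 also: controls were vehicle for no effect and minimum signal wells for full effect; inactives centre near -20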
Arbovirus anti: antivirals against arbovirus infection | arbovirus infection cell-based antiviral screen | inhibition, % at 10 µM | actives 0.37% (n = 200,000);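 active = inhibition from about 30%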;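 also: bluetongue infection of BSR cells; cell survival read as ATP light after 72 h; 0% = infected wells without compound and 100% = uninfected wells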
RecA splice inh: inhibitors of M. tuberculosis RecA intein splicing | cell-free RecA intein splicing, fluorescence | inhibition, %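 (about 9 µM by stock and volumes)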 | actives 0.75% (n = 290,000) | AID 2221; in the data active = inhibition above about 30%; inconclusive = no clear call, values can overlap the other calls;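 also: 0% = vehicle wells and 100% = reference inhibitor control wells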
Target sequence (P9WHJ3 whole entry, looked up, canonical isoform): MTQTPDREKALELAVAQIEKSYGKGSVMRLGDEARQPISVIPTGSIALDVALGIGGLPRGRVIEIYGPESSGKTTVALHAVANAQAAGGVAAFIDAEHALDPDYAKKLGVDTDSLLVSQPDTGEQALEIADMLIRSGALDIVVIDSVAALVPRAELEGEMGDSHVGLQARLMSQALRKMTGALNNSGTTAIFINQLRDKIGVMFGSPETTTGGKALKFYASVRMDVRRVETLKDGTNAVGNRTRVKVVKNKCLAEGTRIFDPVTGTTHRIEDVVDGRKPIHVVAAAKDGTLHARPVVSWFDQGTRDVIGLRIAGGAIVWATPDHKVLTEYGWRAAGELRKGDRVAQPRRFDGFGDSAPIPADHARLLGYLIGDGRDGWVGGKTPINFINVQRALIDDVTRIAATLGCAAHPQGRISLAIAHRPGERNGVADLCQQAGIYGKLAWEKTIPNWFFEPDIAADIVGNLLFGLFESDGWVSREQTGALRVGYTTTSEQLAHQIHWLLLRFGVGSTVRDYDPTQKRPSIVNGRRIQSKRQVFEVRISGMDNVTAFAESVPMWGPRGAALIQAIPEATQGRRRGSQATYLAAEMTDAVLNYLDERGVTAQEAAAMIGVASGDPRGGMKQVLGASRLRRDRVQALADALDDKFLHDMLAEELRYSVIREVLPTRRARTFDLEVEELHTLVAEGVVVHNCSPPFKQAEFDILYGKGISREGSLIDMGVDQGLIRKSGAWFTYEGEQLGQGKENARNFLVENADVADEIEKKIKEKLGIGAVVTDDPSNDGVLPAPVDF
Mtb growth: M. tuberculosis H37Rv growth inhibitors, H37Rv strain (AID 1626) | M. tuberculosis H37Rv growth inhibition; higher % means a stronger effect | actives 0.95% (n = 220,000) | inhibition, % at 10 µM; hits with a dose series show IC50 in µM;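 active = confirmed in a dose series; inconclusive = inhibition above 80% but not taken into the dose series; inactive = below 80% or under 30% at every dose of the series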;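 also: bacteria incubated seven days before Alamar blue readout; 0% = bacteria only wells and 100% = bacteria with antibiotic wells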
Arbovirus anti repeat: recorded beside Arbovirus anti, whose call it bears; inhibition, %; measured here: 10K subset replicate screen; many hits read low in the repeat;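 first of two repeat runs on a subset; 0% = infected and 100% = uninfected wells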
Active calls of the source: *; ? = inconclusive; nt = not tested or not shown.

SMILES | Mtb bLac sens | YopH inh | Arbovirus anti | RecA splice inh | Mtb growth | others
COc1ccc(S(=O)(=O)N2CCN(c3ccc(F)cc3)CC2)cc1C(=O)N1CCOCC1 | -4 | nt | nt | 2.1 | nt
Cc1ccc(NC(=O)Nc2c(C)[nH]c(=O)[nH]c2=O)cc1Cl | 3 | nt | nt | 1.7 | nt
O=C1C=C(NNC(=O)c2cccnc2)CC(c2ccco2)C1 (stereo not given) | 1 | nt | 1 | -3.0 | -6%
CC(O)CNc1nc2ccccc2n1-c1ncnc2sc3c(c12)CCC3 (stereo not given) | 94 | -32 | -14 | 7.4 | -2%
Cc1ccc(NC(=O)c2noc3c2CCC3)cc1C | nt | nt | 4 | 3.5 | 1%
CC(=O)Nc1ccc(C(=O)N/C(=C\c2ccccc2)C(=O)Nc2cccc(C(=O)O)c2)cc1 | -3 | nt | nt | -0.6 | -10%
CCCCCc1nc2c(c3c1CCCC3)CCCC2 | -9 | nt | nt | -1.4 | 13%
COCCn1c(CN(Cc2ccccc2)Cc2ccccc2)nc2c1c(=O)n(C)c(=O)n2C | 3 | -22 | -8 | -2.7 | 6%
CSCC[C@H](NC(=O)N1CCn2c1nc1ccccc12)C(=O)NC1CC1 | -3 | nt | nt | 2.6 | nt
Cc1ccccc1NC(=O)/C(C#N)=C\c1ccsc1 | -3 | -27 | 4 | 1.8 | -1%
CCN(C(=O)c1cc2c(s1)-c1ccccc1S(=O)(=O)C2)c1cc(OC)ccc1OC | -2 | nt | nt | -0.6 | nt
CC(C)NS(=O)(=O)c1ccc(OCC(=O)Nc2cccc3ccccc23)cc1 | -4 | -12 | 6 | -1.7 | -8%
O=C(Cn1cnc2c(nnn2-c2ccccc2)c1=O)NCc1ccco1 | 1 | -25 | -11 | -0.2 | 1% | Arbovirus anti repeat=-7
CC(C)(C)c1nc2cc(Cl)c([N+](=O)[O-])cc2o1 | -8 | nt | -1 | 1.1 | -3%
COc1ccc(C2=NOC(C(=O)NCc3ccco3)C2)cc1 (stereo not given) | ? | -1 | -14 | 0.5 | 13%
Cc1ncc([N+](=O)[O-])n1Cc1ccccc1F | -3 | nt | -4 | 0.4 | -4%
CCN(CCO)C(=O)CC(c1ccccc1)c1cc(Br)ccc1O (stereo not given) | 2 | -24 | 9 | -1.5 | 5%
O=P(CO)(Cc1ccccc1)Cc1ccccc1 | -11 | -29 | 3 | -2.0 | -7%
COc1ccc(NC(=O)C2CCN(C(=O)[C@@H]3Cc4ccccc4CN3C(=O)OC(C)(C)C)CC2)cc1 | 5 | nt | nt | -5.4 | nt
CSc1cccc(NC(=O)c2nnn(Cc3ccccc3)c2N)c1 | 96 | -16 | -23 | 5.1 | 3%
CC[C@H](C)[C@@H](NC(=O)O[C@@H]1C(=O)c2cc(Br)ccc2O[C@H]1c1cccc(OC)c1)C(=O)OC | -9 | -23 | 8 | nt | -3%
COC(=O)[C@]1(C)N[C@H](c2ccc(SC3CCCCC3)c(OC)c2)[C@@H]2C(=O)N(C)C(=O)[C@@H]21 | 1 | nt | nt | -0.1 | nt
CCOCCCNCc1cc(Br)ccc1OCC | 2 | nt | 1 | 0.0 | 3%
O=C(Nc1ccccc1)C1(c2ccccc2)CC1(Cl)Cl (stereo not given) | -2 | -28 | 4 | 2.7 | 2%
Cc1ccc(C)c(N2CCN(C(=O)Cn3ncn4cccc4c3=O)CC2)c1 | 0 | nt | nt | 1.9 | nt
O=C(CSc1nc2c([nH]c3ccccc32)c(=O)n1-c1ccccc1)N1CCOCC1 | -4 | -28 | 8 | 1.2 | 3% | Arbovirus anti repeat=2
CCOC(=O)c1sc(-c2ccccc2)cc1NC(=O)CSc1nnnn1C | -4 | -5 | -2 | -1.2 | 4%
O=C(CNc1cc(S(=O)(=O)N2CCCC2)ccc1OCC(F)(F)F)Nc1cc(Cl)cc(Cl)c1 | 5 | nt | -5 | -1.5 | 0%
N#Cc1ccccc1NC(=O)C(=O)NCC1CCCN1S(=O)(=O)c1cccs1 (stereo not given) | -2 | nt | nt | 0.8 | nt
COc1cc2nc(/C=C/c3ccc(N(C)C)cc3)sc2cc1SC | 0 | -59 | 0 | nt | -1%
COC(=O)c1sc(NC(=S)NC(=O)c2ccccc2)nc1C | 4 | -27 | 2 | -1.8 | -5%
CCC(C)NC(=O)c1ccc(-n2c(=S)[nH]c3ccccc3c2=O)cc1 (stereo not given) | 2 | nt | 2 | -0.9 | -1%
CC(C)(C)c1ccc(C(=O)CSc2ncn[nH]2)cc1 | 36 | 5 | 24 | 1.2 | 0%
COc1cccc(C(=O)NC2CCCc3c2cnn3-c2cc(C)cc(C)c2)c1 (stereo not given) | -5 | nt | nt | 6.1 | nt
O=c1cccc2n1CC1CC2CN(c2ncnc3c2cnn3-c2ccc(Cl)cc2)C1 (stereo not given) | 1 | nt | nt | 0.0 | -7%
O=C(c1ccco1)N1CCN(Cc2cc(=O)c(OCc3ccccc3F)co2)CC1 | -8 | nt | nt | -1.1 | nt
O=C(c1ccco1)c1cn(CC(=O)N2CCCCC2)c2ccccc12 | 7 | 4 | 1 | nt | -4%
Cc1ccc(NC(=O)CS(=O)CC(=O)N(CC(=O)NC2CCCC2)c2cc(C)ccc2C)cc1 (stereo not given) | -1 | -18 | 2 | 0.6 | -2%
O=C(Nc1ccccc1)C1CC2CCC1C2 (stereo not given) | 2 | nt | nt | -0.9 | nt
O=C1CCN(S(=O)(=O)c2ccccc2)CCN1CCOCc1ccc(F)cc1 | -6 | nt | nt | 2.3 | -13%
COc1cccc(-c2nc(C(N)=O)c3[nH]c(=O)n(-c4ccccc4)c3n2)c1OC | -5 | -13 | 7 | -2.8 | 2% | Arbovirus anti repeat=1
COc1ccccc1N1CCN(C(=O)Cc2c(C(=O)O)[nH]c3ccc(Cl)cc23)CC1 | 0 | nt | 3 | -2.2 | 2%
C[C@H]1CCC(=O)N([C@H](COc2ccccc2)Cc2ccccc2)CC1 | -1 | nt | nt | 12 | nt
CC1CCCN(c2ccc(C(=O)N3CCC4(CC3)OCCO4)cc2[N+](=O)[O-])C1 (stereo not given) | 1 | nt | -7 | -1.1 | -3%
C=CCNc1nnc(SCC(=O)N2CCCCC2)c2ccccc12 | -7 | -18 | -3 | 1.0 | -12%

Quoted from the results shown (2 entries):
SMILES | Mtb bLac sens | YopH inh | Arbovirus anti | RecA splice inh | Mtb growth | others
O=c1cccc2n1CC1CC2CN(c2ncnc3c2cnn3-c2ccc(Cl)cc2)C1 (stereo not given) | 1 | nt | nt | 0.0 | -7%
O=C(c1ccco1)N1CCN(Cc2cc(=O)c(OCc3ccccc3F)co2)CC1 | -8 | nt | nt | -1.1 | nt

Further records
SMILES | Mtb bLac sens | YopH inh | Arbovirus anti | RecA splice inh | Mtb growth | others
Cc1ccc(NS(=O)(=O)c2cccc(C(=O)NCCCN3CCOCC3)c2)cc1 | -18 | nt | nt | 0.6 | nt
O=C(c1cccs1)N(CC1CCCO1)c1nc(-c2ccccc2)cs1 (stereo not given) | 5 | 2 | 9 | 0.3 | -4%
Cn1nnc2cc(C(=O)NC(C)(C)C)ccc21 | -4 | -4 | 6 | 2.6 | -2%
NC(=O)c1cccc2ccccc12 | 5 | nt | nt | 2.9 | -2%
CC1C(=O)NC(=O)C1c1ccccc1 (stereo not given) | 8 | nt | nt | -0.5 | 4%
O=C(CC1NCCc2ccccc21)Nc1ccc(Cl)cc1 (stereo not given) | -3 | nt | -8 | 2.3 | 14%
Cc1cccc2c3c([nH]c12)C(=O)CC(C)(C)S3 | 4 | nt | 3 | -5.8 | -1%
COc1ccc(-n2c(N)cc(=O)[nH]c2=O)cc1 | -1 | nt | nt | -1.1 | -12%
COc1ccc(NS(=O)(=O)c2cc(NC(=O)c3ccc(=O)[nH]c3)ccc2N2CCCC2)cc1 | -7 | nt | nt | 3.6 | nt
CC1CCCCC1NC(=O)CNC(=S)N1CC2CC(C1)c1cccc(=O)n1C2 (stereo not given) | 0 | nt | nt | -0.3 | nt
CCOc1ccccc1NC(=O)NCc1ccc(F)cc1 | -9 | nt | 0 | 1.1 | 8%
O=C(Cc1cccs1)NCc1ccccc1 | -5 | -51 | -11 | 0.2 | -1%
Cc1ccc(CN2CCNC(=O)C2CC(=O)N(C)CCc2cnn(C)c2)cc1 (stereo not given) | -3 | nt | nt | -4.0 | nt
Cc1sc2nc3c(C(=O)N4CCCC4)cc(C(=O)c4ccccc4O)cn3c(=O)c2c1C | 59 | nt | 2 | 0.3 | 76%
CCC(=O)Nc1ccc2nc(C)n(CC(=O)Nc3ccccc3)c(=O)c2c1 | -7 | -56 | 0 | -1.8 | -8%

Pulled by structure from above (4):
SMILES | Mtb bLac sens | YopH inh | Arbovirus anti | RecA splice inh | Mtb growth | others
Cn1nnc2cc(C(=O)NC(C)(C)C)ccc21 | -4 | -4 | 6 | 2.6 | -2%
COc1ccc(NS(=O)(=O)c2cc(NC(=O)c3ccc(=O)[nH]c3)ccc2N2CCCC2)cc1 | -7 | nt | nt | 3.6 | nt
CCC(=O)Nc1ccc2nc(C)n(CC(=O)Nc3ccccc3)c(=O)c2c1 | -7 | -56 | 0 | -1.8 | -8%
NC(=O)c1cccc2ccccc12 | 5 | nt | nt | 2.9 | -2%

Next part.
SMILES | Mtb bLac sens | YopH inh | Arbovirus anti | RecA splice inh | Mtb growth | others
O=C(Cn1cccc1C(=O)c1ccccc1)NCc1ccccc1 | -9 | 2 | -9 | -1.2 | 1%
CC(C)NC(=O)c1cnc(Sc2ncc(C(F)(F)F)cc2Cl)n1C | -8 | 3 | 1 | 5.8 | -16%
O=C(CN1C(=O)c2ccccc2S1(=O)=O)NC1CCCC1 | -4 | 11 | 2 | 0.7 | 2%
COc1ccc(C(=O)COC(=O)c2ccc3c(c2)NC(=O)CS3)c(OC)c1 | -9 | nt | nt | -0.1 | nt
CC(C)CC(NC(=O)CNC(=O)C1O[C@@H]2OC(C)(C)O[C@@H]2[C@H]2OC(C)(C)O[C@@H]12)C(=O)O (stereo not given in full) | -5 | nt | 1 | -2.6 | 5%
CC(=O)c1cccc(NC(=O)COc2cc3oc(=O)c(CC(C)O)c(C)c3cc2Cl)c1 (stereo not given) | -2 | -24 | 6 | -3.1 | -3%
Cc1cccnc1NC(=O)C(C)N1C(=O)c2ccccc2C1=O (stereo not given) | -8 | nt | nt | 1.1 | nt
COc1ccc(NC(=O)CSCC(=O)N2c3ccccc3CCc3ccccc32)cc1 | 5 | 1 | -3 | 5.2 | 5%
Cc1nc2ncnn2c(C)c1Cc1cccc(F)c1 | -4 | nt | 3 | 0.6 | 1%
CCOC(=O)CSc1nnc(-c2cccc(Br)c2)o1 | 100 | -37 | 4 | -0.5 | 0.49µM*
COC(=O)CNC(=O)COC(=O)c1cc(F)c(F)cc1Cl | 67 | -81 | 6 | -3.3 | 8%
O=C(Nc1ccccc1F)C1CCCN1S(=O)(=O)c1cccc2nsnc12 (stereo not given) | -3 | nt | nt | -2.8 | nt
Cc1ccc(C2NC(=O)c3ccccc3O2)cc1 (stereo not given) | 0 | nt | nt | -0.4 | nt
Cc1[nH][nH]c(=O)c1N=Nc1ccccc1C#N | -8 | nt | -13 | 1.8 | -9%
O=c1cc(NC2CCCCC2)c2ccccc2o1 | 3 | 17 | -10 | -1.4 | -5%
O=C(c1ccncc1)N1CCN(S(=O)(=O)c2cc(C(F)(F)F)cc(C(F)(F)F)c2)CC1 | -3 | nt | nt | -1.3 | nt
Cc1ccc(CN2CCN(/N=C/c3ccc(C)s3)CC2)cc1 | 1 | -27 | 11 | -2.8 | 0%
Cc1ccccc1-c1ccccc1N | 10 | -22 | 3 | -2.7 | 4%
COC(=O)c1ccc(NC(=O)C2CCCN2S(=O)(=O)c2ccc(OC)cc2)cc1 (stereo not given) | -5 | -17 | 0 | 1.1 | 6%
O=C(NCc1n[nH]c(=S)n1-c1cccc(Cl)c1)c1ccc(S(=O)(=O)N2CCCCC2)cc1 | 0 | nt | nt | 3.4 | nt
COc1cc(C2c3c(oc4ccccc4c3=O)C(=O)N2c2ccc(C)cn2)ccc1O (stereo not given) | 2 | -20 | 2 | -0.6 | 11% | Arbovirus anti repeat=7
COc1cc(CNCCc2ccccc2)cc(Cl)c1OCc1ccccc1 | 98 | nt | -25 | 11 | 8.6µM*
CCc1cc2ccccc2nc1SCC(=O)N1CCN(C(=O)c2ccco2)CC1 | nt | -12 | -7 | 5.1 | 1%
CN(Cc1ccccc1)C(=O)COC(=O)C1CCN(S(=O)(=O)c2cccs2)CC1 | 3 | nt | 4 | -0.1 | 2%
C[C@@H](NC(=O)c1nc[nH]c1C(=O)N[C@@H](Cc1ccccc1)C(=O)OCc1ccccc1)c1ccccc1 | -11 | nt | 6 | -0.4 | -7%
CCOC(=O)c1cc2c(=O)n3cccc(C)c3nc2n(CCOC)c1=NC(C)=O | -3 | nt | nt | nt | -15%
CC(C)CCN(CCC(C)C)C(CO)(CO)CO | -9 | nt | 8 | -1.3 | -10%
CCN1CCN(CC(O)COc2ccc(C(C)=O)cc2)CC1 (stereo not given) | -1 | -20 | -1 | nt | -6% | Arbovirus anti repeat=0

Assay outcomes as filed in PubChem BioAssay.

The list is partial (hit frequency here may not be typical).
